# High-throughput results: PubChem, National Center for Advancing Translational Sciences (NCATS)
# Six1-Eya2 blk = inhibitors of human Six1/Eya2 interaction; activity change, % (test concentration not listed); hit rate 0.56% among 360,000; AlphaScreen GST-Six1/His-Eya2 binding, biochemical; hits give low values; control for the full effect not named in the record; in the data active = activity change below about -65%; inconclusive = about -30% to -65%; inactive = above about -30%; note: % is set by controls: 0 for no effect and ±100 for the full control effect; compound concentration not given in the record
# Target sequence (O00167 whole entry, looked up): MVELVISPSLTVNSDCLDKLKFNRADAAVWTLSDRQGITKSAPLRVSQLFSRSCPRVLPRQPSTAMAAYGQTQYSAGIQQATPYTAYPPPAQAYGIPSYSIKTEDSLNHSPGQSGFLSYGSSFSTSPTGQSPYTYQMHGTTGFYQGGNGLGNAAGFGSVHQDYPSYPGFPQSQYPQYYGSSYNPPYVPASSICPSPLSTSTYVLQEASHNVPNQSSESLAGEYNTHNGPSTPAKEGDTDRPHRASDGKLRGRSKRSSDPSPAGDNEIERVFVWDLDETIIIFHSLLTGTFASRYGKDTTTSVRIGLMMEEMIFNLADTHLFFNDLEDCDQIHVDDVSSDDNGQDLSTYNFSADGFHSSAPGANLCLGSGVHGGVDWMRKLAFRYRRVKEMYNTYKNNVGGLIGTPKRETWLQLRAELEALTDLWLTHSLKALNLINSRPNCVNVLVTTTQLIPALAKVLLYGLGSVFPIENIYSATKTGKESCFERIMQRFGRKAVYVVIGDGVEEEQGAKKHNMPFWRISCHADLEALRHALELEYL
# Target sequence (Q15475 whole entry, looked up): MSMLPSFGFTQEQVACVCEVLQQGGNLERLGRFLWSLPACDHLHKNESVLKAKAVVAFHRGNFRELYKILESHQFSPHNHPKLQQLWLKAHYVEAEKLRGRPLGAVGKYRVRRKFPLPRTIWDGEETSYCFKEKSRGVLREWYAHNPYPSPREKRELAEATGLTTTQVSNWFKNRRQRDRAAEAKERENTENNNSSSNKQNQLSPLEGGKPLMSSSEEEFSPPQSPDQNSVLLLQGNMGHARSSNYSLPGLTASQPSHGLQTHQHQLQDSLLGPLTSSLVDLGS
#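 Homogeneous AlphaScreen proximity assay pairing GST-Six1 with His-tagged Eya2 (added as 5X mix: 250 nM and 500 nM) in 50 mM Tris pH 8.0, 300 mM NaCl, 1 mM TCEP. Glutathione donor and nickel acceptor beads; 1 h, 37 °C, dark.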
# TRPML1 ag = agonists of human TRPML1 channel; Q9GZU1; TRPML1-expressing cells, Ca2+ dye fluorescence, FDSS; host cell line not named in the record; reference of the full effect not given here; activation, % (no concentration beside the values); hit rate 0.12% among 410,000; AID 624414; in the data active = activation above about 50%; inconclusive = about 30% to 50%; inactive = below about 30%; note: 0% is about no effect; the text of the record puts the active cut at 80%
#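 Kinetic FDSS Ca2+ read in Tet-induced TRPML1-DL cells (ABD Ca8 dye plus quencher, 45-90 min RT loading): baseline, then compound, then 110 s agonist window; EC80 agonist 54-4 at 4uM final added afterwards for a 110 s antagonist window.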
# CtBP-E1A blk = CtBP/E1A binding inhibition; AlphaScreen GST-E1A/His-CtBP binding, 1536-well; hits give low values; control for the full effect not named in the record; activity change, % (test concentration not listed); hit rate 0.49% among 340,000; AID 651724; in the data active means activity change below about -65%; inconclusive means about -30% to -65%; inactive means above about -30%; note: % is set by controls: 0 for no effect and ±100 for the full control effect; compound concentration not given in the record
#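 GST-E1A and His-tagged CtBP (125 nM each as 5X stock) were preincubated with pin-transferred compound for 2 h at 37 °C in the dark, then glutathione donor and nickel acceptor beads were added for 1 h before AlphaScreen reading.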
# D2 potentiator = human D2 receptor positive allosteric modulation; DiscoveRx D2 beta-arrestin cells, luminescence, 90 min; 100% = 57 uM dopamine signal; potentiation, % (concentration not given with the values); hit rate 0.23% among 360,000; active = potentiation of 50% or more; inconclusive = 30% to 50%; inactive = 30% or less;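 note: compound concentration not given in the record; tested on top of an EC20 dose of dopamine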
#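 PathHunter beta-arrestin assay in DiscoveRx D2 cells. Compounds were added with an EC20 of dopamine (50 nM final) for 90 min at 37 deg C. Luminescence was read 1 h after detection reagent, with 57 uM dopamine as the EC100 control.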
# TRPV1 potentiator = human TRPV1 potentiation; TRPV1-expressing cells, Fluo-8 calcium influx, capsaicin EC20 potentiation; host cell line not named in the record; control for the full effect not named in the record; potentiation, % at 8.33 µM; hit rate 0.02% among 320,000; AID 540277; active means potentiation above 80%; inconclusive means 30% to 80%; inactive means below 30%; note: 0% is about no effect
#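 Fluo-8 calcium influx in TRPV1-expressing cells, kinetic read (ex 480/em 520 nm). Compound added and read 3 min for agonist activity, followed by capsaicin at EC20 final and 2 min further read for enhancement.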
# TRPML1 blocker = human mucolipin-1 channel inhibition; activity change, negative = inhibition, % (no concentration beside the values); hit rate 0.02% among 390,000; AID 624415; TRPML1-inducible cells, Ca2+ dye fluorescence, FDSS; hits give low values; inhibition of EC80 agonist-evoked calcium signal; Q9GZU1; in the data active means activity change below about -50%; inconclusive means about -30% to -50%; inactive means above about -30%;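 note: stimulus is agonist 54-4 at its EC80 concentration; % is set by controls: 0 for no effect and ±100 for the full control effect; compound concentration not given in the record; the text of the record puts the active cut at -80%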
#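 TRPML1-DL cells, Tet-induced overnight (~16 h, 37 °C) at 1,500 cells/well, were loaded with Ca8 no-wash dye plus quencher for 45-90 min at room temperature. Compounds were pinned during FDSS kinetic reading; agonist 54-4 at EC80 (4 uM final) then added.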
# Active calls of the source: *; ? = inconclusive; . = not tested or not shown; & = joins results of further samples.
SMILES,Six1-Eya2 blk,TRPML1 ag,CtBP-E1A blk,D2 potentiator,TRPV1 potentiator,TRPML1 blocker
O=C(NNC(=O)c1ccccc1O)c1ccccc1O,?,0.2,6,-25,.,7
COCc1cc(=O)[nH]c(Nc2nc3ccc(C)cc3o2)n1,-84*,0.1,-87*,-2,-31,2
CCOC(=O)c1sc2ncn(CC(=O)NCC3CCCO3)c(=O)c2c1C (configuration not stated),-6,0.7,-7,-9,-10,18
CCCS(=O)(=O)NC(=O)C1(C)CCN(C(=O)Cc2cccc3ccccc23)C1 (configuration not stated),2,-0.1,7,6,.,.
Cc1ccccc1Nc1nn2c(=O)c3ccccc3nc2s1,-9,2.2,-2,9,8,-12
O=C(CNc1n[nH]c(=O)[nH]c1=O)N/N=C/C1CC=CCC1 (configuration not stated),13,-0.8,-7,-2,-10,-11
CCOC(=O)c1ccc(NC(=O)COc2ccc(S(=O)(=O)NC(C)(C)C)cc2)cc1,0,0.5,17,22,2,-4
C=CCn1c(SCC(=O)Nc2ccc(O)cc2)nc2sc(C)c(C)c2c1=O,0,-0.2,2,-1,.,14
Cc1ccc2cc(C#N)c(SCc3nnc(-c4ccccc4[N+](=O)[O-])o3)nc2c1,10,-0.3,2,-16,1,-8
Cc1nc2cc(C(F)(F)F)ccc2n1CCNc1nc(-c2cc(Cl)c(N)c(Cl)c2)cs1,-5,0.3,-6,-9,1,-4
COc1ccc(C2CC(c3ccccc3C(F)(F)F)=NN2c2ccc(S(N)(=O)=O)cc2)cc1 (configuration not stated),29,-0.8,36,0,.,10
CCOC(=O)C1CCN(C(=O)Cn2c(=O)c3cccn3c3cccnc32)CC1,2,3.1,.,-3,6,3
NC(=O)CNC(=O)[C@@H]1CC2(CC(c3ccc(Cl)cc3)=NO2)CN1C(=O)c1ccc(Br)cc1 (some centres not stated),-4,-0.4,0,-2,6,2
CCCCn1c(N)c(N(CC(C)C)C(=O)CCCn2c(=O)oc3ccccc32)c(=O)[nH]c1=O,7,1.9,1,-5,5,3
COc1ccc(C(OC(=O)c2c(C)noc2C)C(=O)NC2CCCC2)cc1 (configuration not stated),6,-0.5,-6,-14,9,-3
Cc1ccc(S(=O)(=O)N/N=C\c2cccnc2)cc1,3,0.4,2,-14,-1,17
CCOc1ccc(C(=O)NCc2ccccn2)cc1,0,2.2,-5,-6,11,-6
CCCn1c(-c2cc(OC)c(OC)c(OC)c2)nc2nc3ccccc3nc21,7,-0.2,0,-4,-8,-1
CC(C)C(NC(=O)OCc1ccccc1)C(=O)NC(Cc1ccc(O)cc1)C(=O)O (configuration not stated),5,0.0,6,-5,-5,25
C/C(=N\NS(=O)(=O)c1ccc(C)c([N+](=O)[O-])c1)c1ccc2c(c1)OCO2,-3,-0.5,.,-17,9,-17
COc1ccccc1CNC(=O)C1CCN(S(=O)(=O)c2c(C)noc2C)CC1,-19,-0.7,-1,-9,10,-3
COCCNC(=O)C(OC(=O)c1ccco1)c1ccc(OC)cc1 (configuration not stated),6,0.2,8,0,.,-18
CC(C)C(O)(C#CCN1CCCCC1)C(C)C,1,-0.4,-2,-33,-6,0
CCC(=O)Oc1ccc2oc(=O)cc(C)c2c1,0,-0.4,3,2,-2,16
O=[N+]([O-])c1ccc(NN=Cc2cccc3ccccc23)cc1,1,11,4,-1,.,16

# Further entries.
SMILES,Six1-Eya2 blk,TRPML1 ag,CtBP-E1A blk,D2 potentiator,TRPV1 potentiator,TRPML1 blocker
CCOC(=O)N1CCN(C(=O)CN2C(=O)COc3ccc(S(=O)(=O)N4CCOCC4)cc32)CC1,5,-0.4,-11,-5,-3,-1
O=C(/C=C/c1ccccc1)N1CCN(S(=O)(=O)c2ccc(F)cc2)CC1,-3,-0.1,0,4,-6,-3
CCN(CC)S(=O)(=O)c1cc(NC(=O)CN2C(=O)NC3(CCCc4ccccc43)C2=O)ccc1C (configuration not stated),-8,1.1,-16,-5,4,-24
CN(C(=O)COC(=O)c1ccc(=O)n(Cc2ccccc2)n1)C1CCS(=O)(=O)C1 (configuration not stated),4,-0.1,8,-28,10,-10
O=C(Nc1nnc(CCN2CCCCC2)s1)c1ccccc1,7,0.3,3,-6,9,0
O=C(NCCN1CCCCC1)c1ccc(=O)oc1,7,-0.5,7,1,6,-4
Cc1nc2ccccc2c(C(=O)O)c1-c1ccccn1,7,-0.5,5,-2,.,8
Cc1ccc(NC(=S)NCC(O)c2ccccc2)c(C)c1 (configuration not stated),0,0.0,0,-6,-2,-1
CCCCn1nc2cc(C(=O)NC3CCCc4ccccc43)ccc2c1OCC (configuration not stated),0,1.4,-4,0,-9,14
O=C1NN(c2ccccc2)C(=O)/C1=C\c1cccc(OC(=O)c2cccs2)c1,-11,-0.6,-1,-32,7,8
CCN(CC)S(=O)(=O)c1ccc(C)c(NC(=O)Cn2cnc3cc([N+](=O)[O-])ccc3c2=O)c1,-17,4.0,-4,29,4,34
O=C(/C=C/c1ccc([N+](=O)[O-])cc1)NCc1cccs1,0,-0.5,-2,19,-8,-7
CCN(CC)S(=O)(=O)c1ccc(N2CCOCC2)c(NC(=O)COc2ccc(C#N)cc2)c1,2,-0.3,-3,1,0,4
Cc1ccc(O)c(-n2nc3ccccc3n2)c1,19,1.3,2,-1,-1,-13
O=C(Nc1c(-c2ccccc2)nc2ccccn12)c1ccccc1,2,-0.2,-1,-10,-3,-7
O=C(Nc1nnc(S(=O)(=O)Cc2ccc(F)cc2)s1)c1ccccc1F,6,0.5,-11,-7,6,-1
O=C(Cc1ccc(Br)cc1)N1CCN(C(=O)c2ccco2)CC1,0,-0.2,4,-4,2,1
COc1ccc(OC)c(CN(CCN2CCOCC2)C(=O)Nc2cccc(Cl)c2)c1,-17,-0.4,0,-19,-7,9
O=C(OCC(=O)N(C1CCCCC1)C1CCCCC1)c1ccncc1,0,0.9,8,-11,-22,16
COC(=O)c1ccc(Cn2nnc3c(=O)[nH]c(C4CCCN(S(=O)(=O)c5cccc(Cl)c5)C4)nc32)cc1 (configuration not stated),3,-0.2&1.5,-9,-28,-6,15&-26
COc1ccc(NC(=S)Nn2cnnc2)cc1OC,5,-0.5,38,-12,8,-7
CCOC(=O)C1CCCN(C(=O)Cn2cccc2C(=O)c2ccccc2)C1 (configuration not stated),-2,1.8,1,-10,5,-6
CCN(CC)C(=O)c1ccc(-c2nnc(OC)c3ccccc23)cc1,-28,-0.2,-7,-12,-2,-2
Cc1cccc(C(=O)NN/C=C/C(=O)c2ccccc2)c1,-18,0.0,1,-50,-1,2
C[C@H]1CNC(=O)C(=O)N1C[C@H](Cc1ccc(O)cc1)NC(=O)CC12CC3CC(CC(C3)C1)C2,0,0.2,-22,-1,-7,-7

# Structural class, the entries above containing two or more sulfur atoms.
SMILES,Six1-Eya2 blk,TRPML1 ag,CtBP-E1A blk,D2 potentiator,TRPV1 potentiator,TRPML1 blocker
C=CCn1c(SCC(=O)Nc2ccc(O)cc2)nc2sc(C)c(C)c2c1=O,0,-0.2,2,-1,.,14
O=C(Nc1nnc(S(=O)(=O)Cc2ccc(F)cc2)s1)c1ccccc1F,6,0.5,-11,-7,6,-1

# The results go on:
SMILES,Six1-Eya2 blk,TRPML1 ag,CtBP-E1A blk,D2 potentiator,TRPV1 potentiator,TRPML1 blocker
Cc1[nH]c2ccccc2c1/C=N/NC(=O)c1cc(-c2ccccc2)n[nH]1,-18,0.9,-5,-11,5,31
COc1ccc2c(c1)C(=O)C(=O)N2CCS(=O)(=O)c1ccccc1,3,-0.3,6,-59,-1,0
Cc1ccc(CN2CCN(Cc3cnc(N4CCOCC4)s3)CC2CCO)cc1 (configuration not stated),1,-0.1,2,-15,3,2
Cc1ccccc1OCc1nnc(SCc2cc(=O)[nH]c3ccccc23)n1-c1ccccc1,-27,-0.3,1,-4,4,10
COc1ccc2c(-c3ccc(SC)cc3)c(-c3ccc(S(C)(=O)=O)cc3)sc2c1,9,0.9,17,-9,.,0
FC(F)Sc1ccc(-n2cc(-c3ccccc3)[n+]3c2CCC3)cc1,5,0.7,-11,-29,-11,19
COc1ccc(CN(C2CCCCC2C)S(=O)(=O)c2ccc(S(=O)(=O)N(C)C)cc2)cc1OC (configuration not stated),1,134*,3,-8,7,-25
Cc1ccc(S(=O)(=O)N2CCC(=O)N(CCOCc3ccc(Cl)cc3)CC2)cc1,5,0.6,1,-3,-11,9
CCOc1ccccc1NC(=O)CSc1nnc(CNC(=O)c2cc(OC)c(OC)c(OC)c2)o1,1,-0.7,-14,-11,?,-3
Cc1cc([N+](=O)[O-])ccc1NC(=O)c1cccc(NC(=O)C(C)C)c1,25,1.8,.,-6,5,1
COc1ccc(C(=O)COC(=O)CN2C(=O)c3ccccc3C2=O)c(OC)c1,8,-0.7,-4,0,-2,14
Cn1c(SCc2ccccc2)nc2c1c(=O)[nH]c(=O)n2C,16,-0.2,3,-10,14,-17
O=C(COC(=O)Cc1n[nH]c(=O)c2ccccc12)Nc1c(Br)cc([N+](=O)[O-])cc1Br,-2,1.6,4,6,.,22
CC(=O)C[C@@H](O)CC(=O)[C@H]1OC(=O)[C@H](C)C/C=C\Cc2ccccc21,0,-1.0,0,5,.,-15
S=c1[nH]nc(-c2ccco2)n1-c1cccc2ccccc12,4,-0.2,-5,8,16,4
CCS(=O)(=O)c1cc([N+](=O)[O-])c(Sc2ccccc2N)s1,-6,-0.3,6,-10,7,-2
Cc1cc(NC(=O)CCCN2C(=O)c3cccnc3C2=O)ccc1Br,11,-1.3,2,-7,2,-6
Cc1cccc(OCCC(=O)NCC(c2ccccc2)N(C)C)c1 (configuration not stated),3,0.2,-3,-13,-11,-5
COc1ccc(-c2csc(NC(=O)C3CSC4(C)CCC(=O)N34)n2)c(OC)c1 (configuration not stated),-21,0.9,2,-2,-6,52
COc1ccc(CNC(=O)c2cnccn2)cc1,7,0.0,14,-5,0,3
CCCCN(C(=O)c1ccco1)c1nnc(-c2cc(OC)c(OC)c(OC)c2)s1,12,1.3,2,5,-6,-4
CCc1ccc(C(=O)COC(=O)CNC(=O)c2ccc(N3C(=O)c4ccccc4C3=O)cc2)cc1,-1,-0.8,-6,11,4,-12
Cc1ccc(C)c(NCC(=O)c2ccc(Cl)cc2)c1,-12,1.3,-19,-24,-9,9
CCn1c(-c2ccccc2Cl)nn(CC(=O)NCCc2ccccc2)c1=S,8,-0.1,0,-14,6,3
O=C(Nc1ccc(F)cc1)N1CCn2c(nc3ccccc32)C1,0,2.1,0,-8,-21,9
CCc1ccccc1Nc1ccc(C(=O)O)cc1N,-6,-1.0,-1,5,-10,8

# Record cards, as listed above. Order of screens: Six1-Eya2 blk | TRPML1 ag | CtBP-E1A blk | D2 potentiator | TRPV1 potentiator | TRPML1 blocker
# Profile of COc1ccc2c(c1)C(=O)C(=O)N2CCS(=O)(=O)c1ccccc1 : 3 | -0.3 | 6 | -59 | -1 | 0
# Profile of COc1ccc(CN(C2CCCCC2C)S(=O)(=O)c2ccc(S(=O)(=O)N(C)C)cc2)cc1OC (configuration not stated) : 1 | 134* | 3 | -8 | 7 | -25
# Profile of COc1ccc2c(-c3ccc(SC)cc3)c(-c3ccc(S(C)(=O)=O)cc3)sc2c1 : 9 | 0.9 | 17 | -9 | . | 0
# Profile of Cc1ccccc1OCc1nnc(SCc2cc(=O)[nH]c3ccccc23)n1-c1ccccc1 : -27 | -0.3 | 1 | -4 | 4 | 10
